# Screens as filed in PubChem BioAssay.
# AID504770: E. coli YBA685 growth inhibition, screen for V. cholerae RctB inhibitors. E. coli YBA685 rctB-dependent plasmid, OD600 growth, 3 h; active compounds read low. z-score (concentration not given with the values). 130,000 tested, 0.27% active. AID 504770;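 active means z-score under -2 on both plates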;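 further: wells of about 30 µL received 100 nL stock; score is relative to mean and SD of the test wells; the first replicate is given; strong numbers were not always called active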
# CapD inh: CapD enzyme inhibition. 140,000 tested, 0.23% active. z-score (test concentration not listed). purified CapD enzyme, fluorescence intensity read-out; active compounds read low; some hits fall short of the stated cut;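 active means z-score under -4 in either of two replicates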;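 further: stock transfer was 100 nL into about 40 µL; score is relative to mean and spread of the plate; one replicate is shown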
# An asterisk follows results filed as active; / = no result given.
SMILES,AID504770,CapD inh
CCN(CC)S(=O)(=O)c1ccc2c(c1)n(CC)c(=O)n2CC,-1.3,/
N#Cc1c2c(c(O)[nH]c1=O)CN(Cc1ccccc1)CC2,-0.65,52
COC(=O)c1cc2cc(Br)ccc2s1,0.65,0.41
CCCCNC(=O)c1c[nH]c2c(F)cccc2c1=O,-0.9,/
Cn1c2ccccc2c2nnc(SCC(=O)N=C3NC(=O)CS3)nc21,0.75,-1.4
O=C1CCCN2C(=N1)SC(=S)N2CN1CCN(Cc2ccccc2)CC1,-1,/
CCOC(=O)c1nnn(-c2nonc2-n2cccc2)c1CN1CCOCC1,-1.5,0.17
Cc1cc(N=Cc2c(O)n(-c3ccc4c(c3)OCO4)c(=O)c3ccccc23)ccn1,0.2,/
CCOC(=O)C(NC(=O)c1ccccc1F)(Nc1nc2ccccc2nc1C(F)(F)F)C(F)(F)F (stereo not given),/,-0.34
Cn1c(N)c(S(=O)(=O)N2CCc3ccccc3C2)c(=O)n(C)c1=O,1.4,/
Cc1ccc(CCNC(=O)Cn2c(=O)oc3cc(S(=O)(=O)NC4CCCC4)ccc32)cc1,-0.6,-0.21
CC(=O)Nc1cc(N)nnc1Cl,0.45,0.015
CC1CC(C)CN(C(=O)CSc2nnc(C(F)(F)F)n2C)C1 (stereo not given),-0.5,/
CCOC(=O)c1n[nH]n2c1nc(=S)c1ccccc12,0.75,-1.3
O=C(CN1C(=O)c2ccccc2S1(=O)=O)N1CCCC1,-0.9,-0.34
Cc1noc(C)c1COC(=O)/C=C/c1cn(-c2ccccc2)nc1-c1ccc2c(c1)OCCO2,0.45,/
O=C(C1CCC(CNS(=O)(=O)c2cccc3nsnc23)CC1)N1CCc2ccccc21 (stereo not given),1,-0.18
CCN(CC)C(=O)c1cc(-c2ccc(OC)cc2)on1,0.4,0.01
COc1cc(C2N(c3ccccc3)CCN2c2ccccc2)ccc1OC(C)=O,/,0.45
CCC(=O)Nc1ccc2nn(-c3ccc(OC)cc3)nc2c1,0.75,20
Cc1cc2nc(/C=C/c3ccccc3)n(Cc3ccc(C#N)cc3)c2cc1C,/,69
Cc1ccc(NCC(F)(F)C(F)F)cc1,1.1,/
COc1ccc(/C=C/C(=O)Nc2nc3ccc(S(C)(=O)=O)cc3s2)cc1Br,0.5,-0.42
Cc1cc(=O)n(Cc2ccncc2)c2c1c(C)nn2C,-1.1,-1.4
CCn1c(CN(CCO)CCO)nc2ccccc21,-0.45,/
Cc1ccc(N(Cc2ccccc2O)C(=O)CN2C(=O)c3ccccc3S2(=O)=O)cc1,1.1,0.055
CN(C)C=Nc1cc(Cl)c(-n2cccc2)cc1Cl,/,-0.32
FC(F)(F)c1cnc2c(-c3ccccc3)nnc(-c3ccccc3)c2c1,/,-1.1
CCOC(=O)c1ccc(Oc2nc(NC(C)C)nc(NC(C)(C)C)n2)cc1,-0.4,0.66
O=C(C1=C2SC=C(c3ccccc3)N2CCCC1)c1cccs1,-0.25,/
Nc1cccc(S(=O)(=O)c2cccc(N)c2)c1,0.05,1.2
CCn1c(O)c(C=Nc2ccccc2)oc1=S,-0.1,46
CC(C)OP(C)(=O)C(N)=O (stereo not given),-0.5,/
CCOC(=O)C1=C(C(=O)OCC)SC(=C2C(=S)C(C)(C)N(C(=O)C(F)(F)F)c3cc(C)ccc32)S1,/,0.03
CC1CC(C)(C)CC2(C1)NC(=S)N(c1nc3ccccc3s1)N2 (stereo not given),0.15,0.045
COC(=O)c1c(C(=O)OC)c(-c2ccc(OC)cc2)n2c1CS(=O)(=O)C2,/,-0.2
COc1ccc(/C=N/c2oc(C)c(C)c2C#N)c(OC)c1,-0.4,-0.26
Cc1ccc(/C=C2/SC(=S)N(CC(=O)Nc3nccs3)C2=O)cc1,2.9,0.58
O=C1C(=O)N(CCN2CCOCC2)C(c2ccccc2F)/C1=C(\O)c1ccc(F)cc1 (stereo not given),/,-0.44
Cc1cn(CC(C)C)c(=O)n(CC(C)C)c1=O,1.8,0.27

# Single records, as listed above.
# Nc1cccc(S(=O)(=O)c2cccc(N)c2)c1 across the screens: AID504770 = 0.05; CapD inh = 1.2
# Cc1cc2nc(/C=C/c3ccccc3)n(Cc3ccc(C#N)cc3)c2cc1C across the screens: AID504770 = /; CapD inh = 69

# Additional structures follow.
SMILES,AID504770,CapD inh
COC(=O)c1cn(NC(=O)CCC2CCCC2)c(=O)c2ccccc12,/,-0.045
O=C1CN(Cc2ccccc2)c2ccccc2N1,-0.5,/
COc1ccc(/C=C2/SC(=Nc3ccc(Cl)c(C(=O)O)c3)NC2=O)cc1C,/,-0.52
O=C(CCN1CCOCC1)N/N=C/c1cccnc1,0.85,/
CCN1CCN(CCCNC(=O)c2ccc3c(=O)n(CCc4ccccc4)c(=O)[nH]c3c2)CC1,-1.4,18
O=C(OCC(=O)N1CCCc2ccccc21)c1n[nH]c2ccccc12,-0.3,1.1
CCn1c(CCCNC(C)=O)nc2ccccc21,1.7,-1.1
C=CCn1c(=S)[nH]c2sc3c(c2c1=O)CCN(C(=O)OCC)C3,-0.35,1.3
O=C(OCCOc1ccc(Br)cc1)c1cnccn1,-0.65,/
Cc1ccc(Cn2c(-c3ccc[nH]c3=O)nc3cc(Cl)c(Cl)cc32)cc1,/,52
CN1C(=O)C(=Cc2ccc(O)cc2)C(=O)N(C)C1=O,-0.15,/
CCOC(=O)C1=C(C)NC2=C(C(=O)C(C(=O)OCC)C(c3cccc(OC)c3)C2)C1c1ccccc1C (stereo not given),/,2.1
CC1(c2ccc(Cl)cc2Cl)NC(=O)N(CC#N)C1=O (stereo not given),0.35,/
COc1cc(C(=O)Nc2cccc(-c3nc4ccccc4[nH]3)c2)ccc1OC(C)=O,1.6,0.49
O=c1cc(O)c2c(=O)n(-c3ccccc3)c(-c3ccccc3)cc2o1,0.6,0.17
O=C(CCc1nc2sc3c(c2c(=O)[nH]1)CCCC3)N1CCN(Cc2ccc3c(c2)OCO3)CC1,-0.1,/
Cc1ccc(C(C)C)c(OCC(O)CN2CCN(C)CC2)c1 (stereo not given),0.05,0.27
Cc1noc(-c2ccccc2)c1NC(=O)N1CCN(C(c2ccccc2)c2ccccc2)CC1,-0.4,0.26
CC(c1ccccc1)n1cncc1C(=O)O (stereo not given),0.6,0.6
CCCCN1CN(CCc2cccc(Cl)c2)Cn2c1nc1ccccc12,-1.4,/
CC(C)(C)c1cc(CCCOC(=O)CNc2ccccc2)cc(C(C)(C)C)c1O,/,-0.34
Cn1c(C(C#N)C(=O)c2cccs2)nc2ccccc21 (stereo not given),0.1,-0.075
O=[N+]([O-])C(=C(Sc1ccccc1)Sc1ccccc1)/C(Cl)=C(/Cl)Br,/,-0.53
CC(=O)c1ccc(-c2cccs2)s1,/,93
CC(CCC(=O)O)C1CCC2C3CCC4C[C@H](O)CCC4(C)C3CC(=O)C12C (stereo not given in full),-0.35,0.27
CC(C)(C)C1CCC(C(=O)OCC(=O)Nc2ccc(C(N)=O)cc2)CC1 (stereo not given),0.35,-0.18
COc1ccc(CCNC(=O)CCCn2c(SCc3cc(=O)n4ccccc4n3)nc3ccccc3c2=O)cc1OC,/,4
c1ccc2c(c1)C(N1CCOCC1)c1cccn1-2 (stereo not given),/,1.2
COC(=O)c1cc(NS(=O)(=O)Cc2ccccc2)cc(C(=O)OC)c1,-0.1,1.1
Cc1cccc(CCNC(=O)C2CCCN(c3cnccn3)C2)c1 (stereo not given),0.55,12
O=C(O)CN1C(=O)c2ccc(Br)cc2C1=O,1.4,/
NCC1CC2CCC1C2 (stereo not given),-0.4,/
O=S(=O)(c1cccc2nonc12)N1CCCN(c2nccc(C(F)(F)F)n2)CC1,0.65,-0.39
CC1(C)C2CC[C@](C)(C2)C1NC(=O)c1ccc(Cl)cc1Cl (stereo not given in full),/,-0.49
CC(C)(Oc1ccc(C(N)=O)cc1)C(=O)O,/,0.8
CCSc1nc(N)c(C#N)c(CC)c1C#N,-0.05,/
O=C(c1cc(-c2cccc(O)c2)on1)N1CCCC1,-0.4,0.065
C#CC(C)(C)OC(=O)Nc1ccccc1,-0.65,-0.14
Cc1[nH]n(-c2ccccc2)c(=O)c1/C=N/O,-0.35,2.3
CC[C@H]1OC(=O)[C@H](C)[C@@H](O[C@H]2C[C@@](C)(OC)[C@@H](O)[C@H](C)O2)[C@H](C)[C@@H](O[C@H]2O[C@H](C)C[C@H](N(C)C)[C@H]2O)[C@](C)(O)C[C@@H](C)C(=O)[C@H](C)[C@@H](O)[C@]1(C)O,/,-0.07
CCc1ccc2[nH]c(=O)c(CNC3CCCC3)cc2c1,-0.4,/
CSc1nc(C)cc(OCCNS(=O)(=O)c2ccc(C)cc2)n1,1.6,0.095
CC(C)(C)NS(=O)(=O)c1ccc(-c2nnc(SCC(=O)c3ccc(F)cc3)o2)cc1,-1.1,/
OC[C@H]1O[C@@H](Oc2ccccc2)[C@H](O)[C@@H](O)[C@@H]1O,-0.45,0.55
CC1[C@H](C)OC(=O)CC(O)CC(O)CC(O)CCC(O)C(O)C[C@]2(O)CC(O)C(C(=O)O)C(CC(OC3O[C@H](C)[C@@H](O)[C@H](N)[C@@H]3O)/C=C/C=C/C=C/C=C/CC/C=C/C=C/[C@H](C)[C@H]1O)O2 (stereo not given in full),-0.05,0.02
O=C(Sc1cccs1)C1COc2ccccc2O1 (stereo not given),-2.3*,-0.82
COc1ccc(C(=O)N2c3ccccc3N=C(c3ccc(C)cc3)CC2c2ccccc2)cc1 (stereo not given),/,0.085
C=CCn1c(Cc2ccc(OC)cc2)nnc1SC(C)C(=O)Nc1nnc(C)s1 (stereo not given),-0.15,/
O=C(O)CCC(=O)c1ccc(I)cc1,1.5,-0.51
CC1CN(Cc2nc3c([nH]2)c(=O)[nH]c(=O)n3C)CC(C)O1 (stereo not given),-0.5,/
CCOC(=O)c1ccc(-n2c(=S)sc3c(=O)n(CC4CCCO4)c(SCC(=O)N(CC)CC)nc32)cc1 (stereo not given),/,-0.15
OCC12COC3c4ccccc4C(OC1)N32 (stereo not given),/,-0.98
CCC(=O)Nc1ccc(-c2ccc3nncn3n2)cc1,0.1,/
CNC1(C)C2CCC(C2)C1(C)C (stereo not given),/,0.32
Fc1cccc(Cl)c1C1Nc2cccc3cccc(c23)N1,/,-1.4
O=C(O)CCS(=O)(=O)c1ccc2[nH]c(=O)oc2c1,-0.4,/
CN(CC(=O)Nc1ccc(C(N)=O)cc1)Cc1c(F)cccc1Cl,-0.5,/
COC(=O)c1ccc(CSc2nnc(-c3c[nH]c4ccccc34)n2C)o1,-1.1,-0.29
O=C(CSc1n[nH]c(=O)n1Cc1ccccc1)Nc1cc(Cl)cc(Cl)c1,0.95,0.99
Nc1nnnn1CC(=O)OCC(=O)c1ccccc1,1.4,-0.36

# 6 records drawn at random from the list so far:
SMILES,AID504770,CapD inh
Nc1cccc(S(=O)(=O)c2cccc(N)c2)c1,0.05,1.2
O=C(CN1C(=O)c2ccccc2S1(=O)=O)N1CCCC1,-0.9,-0.34
O=C(CCN1CCOCC1)N/N=C/c1cccnc1,0.85,/
COc1ccc(/C=N/c2oc(C)c(C)c2C#N)c(OC)c1,-0.4,-0.26
O=C(Sc1cccs1)C1COc2ccccc2O1 (stereo not given),-2.3*,-0.82
OCC12COC3c4ccccc4C(OC1)N32 (stereo not given),/,-0.98

# (continued)
SMILES,AID504770,CapD inh
O=C(Cc1cc(F)cc(F)c1)Nc1ccccn1,-1.4,0.21
CN(CC(=O)Nc1nc2ccccc2s1)S(=O)(=O)c1ccccc1,-0.35,-0.59
CCC1=C/C(=C/N(C)c2ccccc2)C(=O)S1,-1.1,0.57
Cc1c(/C=N/NC(=O)CCc2ccc(S(=O)(=O)N3CCOCC3)cc2)cc(C#N)n1C,-0.1,/
O=C(CS(=O)(=O)c1ccc(Cl)cc1)Nc1ccc(F)c(F)c1F,/,-0.96
Cc1cc(=O)[nH]n(CCO)c1=O,1.1,-1.2
COc1cccc(C(=O)NCCSc2ccc(Br)cc2)c1,/,-0.49
O=C(NCc1ccco1)c1ccc2c(=O)n(-c3ccc(F)c(Cl)c3)c(=S)[nH]c2c1,/,-0.62
CCOC(=O)N1CCc2c(sc3nc[nH]c(=O)c23)C1,-0.7,-0.48
O=C(Oc1ccc2ccccc2c1C1SCCS1)c1cccs1,1.3,10
CCC(=O)N1CCN(c2ccc(NC(=O)c3ccccc3)cc2)CC1,0.15,/
CCOC(=O)C1CCCN(Cc2cccs2)C1 (stereo not given),-0.05,-0.07
CCOC(=O)NC(C)C1CC2CCC1C2 (stereo not given),0.75,-0.76
CC(=O)OC1C(OC(C)=O)N(C)C(=O)N1C (stereo not given),-0.65,-0.005
CCN(C(=O)c1c(C(F)(F)F)ccnc1OC)c1c(C)cccc1C,0.45,-0.15
O=C(CSc1nc2ccccc2s1)N1CCCC1,0,0.97
CCOC(=O)C(C#N)=C1C2CC3CC(C2)CC1C3,-0.15,-0.33
N#CC(C(=O)Nc1ccc(F)cc1)=C(SCc1cc(F)ccc1F)SCc1cc(F)ccc1F,/,-0.52
CCS(=O)(=O)c1ccc(C(=O)Nc2nccs2)cc1,0.05,/
CCOC(=O)c1nc(NCc2ccccc2)c2ccccc2n1,0.15,0.1
Nc1ccc(C(=O)OCN2C(=O)c3ccccc3C2=O)cc1,-0.45,/
Cc1cc(=O)[nH]c(N2CCCC2)n1,-1.7,0.73
